Assay outcomes from PubChem BioAssay.
UCH37 DUB inh – human UCH37 deubiquitinating enzyme inhibition; Q9Y5K5; purified proteasome/UCH37, Ub-AMC cleavage fluorescence; inhibition, % (concentration not given with the values); 330,000 compounds, 0.33% hits;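 active = mean of two replicates above 20%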;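 note: 0% = compound-free wells with enzyme and 100% = wells lacking proteasome; stock transfer was 100 nL into about 20 µL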
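Material: Human UCH37 enzyme supplied as purified proteasome complex | Schedule: 30 min compound-proteasome preincubation then 25 min substrate reaction, room temperature | Detection: AMC fluorescence from Ub-AMC cleavage, excitation 355 nm, emission 460 nm | Benchmarks: Wells without proteasome as full block, compound-free enzyme plus substrate as uninhibited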
E coli growth – inhibitors of Escherichia coli growth; OD600, 23 h; stronger effect = lower value; OD600 absorbance (concentration not given with the values); 330,000 compounds, 0.21% hits;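 active = OD600 absorbance below the run mean of sample wells minus 3.6 SD, in any replicate, cut at about 0.56 in these data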;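 note: stock transfer was 300 nL into about 60 µL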
FGF22 binding – shifts melting point of recombinant human FGF22 | 340,000 compounds, 1.5% hits | recombinant FGF22 thermal shift, SYPRO orange fluorescence; percent of sucrose octasulfate shift, DMSO zero | calls only at 9.99 µM | Q9HCT0;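 active = melting point raised past a set limit in the mean and every replicate; three in four hits are not shown here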
rRNA inh HTS – selective bacterial rRNA inhibition in E. coli | E. coli WT GFP vs humanized-ribosome RFP mutants, fluorescence, 24 h; stronger effect = lower value; DMSO median 0, no signal -100 | GFP signal change (wild-type ribosome), % (test concentration not listed) | 350,000 compounds, 1.6% hits | AID 720706;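 active = significant combined selectivity score with lowered wild-type GFP, culture density cut under 30%, mutant RFP and density less affected; inactive = any of these conditions unmet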; note: one replicate is shown; some compounds called inactive have numbers as strong as hits
HNF4A DNA FP – change in binding of human HNF4 alpha to DNA; HNF4a-FITC DNA binding, fluorescence polarization, 1 h; AID 1224865; 360,000 compounds, 0.3% hits; activity change, % at 10 µM; in the data active = activity change above about 30%, passing the limit was not always enough;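 note: controls were the assay level and a saturating level of protein; the project sought stronger binding though the title names inhibitors; some compounds called inactive have numbers as strong as hits; positive values seem to mean higher polarization but the record does not say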
Target sequence (P41235 whole entry, looked up): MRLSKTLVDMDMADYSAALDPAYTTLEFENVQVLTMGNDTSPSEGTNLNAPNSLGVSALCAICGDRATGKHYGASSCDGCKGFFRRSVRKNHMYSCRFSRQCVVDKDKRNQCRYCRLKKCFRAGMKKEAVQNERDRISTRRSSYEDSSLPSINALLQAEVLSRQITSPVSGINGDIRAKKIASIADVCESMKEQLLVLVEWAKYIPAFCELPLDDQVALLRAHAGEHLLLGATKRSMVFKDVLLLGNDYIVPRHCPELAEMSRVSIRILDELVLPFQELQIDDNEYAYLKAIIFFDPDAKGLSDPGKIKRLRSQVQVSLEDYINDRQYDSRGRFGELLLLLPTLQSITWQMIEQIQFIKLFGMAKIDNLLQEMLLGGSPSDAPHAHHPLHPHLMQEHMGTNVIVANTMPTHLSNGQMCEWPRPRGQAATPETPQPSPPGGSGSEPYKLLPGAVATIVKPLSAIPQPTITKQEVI
ALR H2O2 inh – inhibitors of human sulfhydryl oxidase ALR; P55789; purified ALR, DTT oxidation, H2O2 HRP-luminol luminescence; inhibition, % (no concentration beside the values); 290,000 compounds, 3.8% hits;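 active = mean and each replicate at 75% or more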;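 note: stock transfer was 7.5 nL into about 7.5 µL; 0% = neutral wells and 100% = wells with inactivated enzyme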
Beta2AR agonist – agonists of human beta-2 adrenergic receptor inducing internalization; P07550; Am2.2-beta2AR cells, FAP receptor internalization, flow cytometry; reference of the scale not given here; response, % (no concentration beside the values); 340,000 compounds, 0.43% hits;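 active = response above a set limit, near 3 SD of response in nonfluorescent compounds, cut at about 42% in these data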;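 note: stock transfer was 100 nL into about 11 µL; a reference agonist was the positive control; negative values mostly stem from fluorescent compounds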
Target sequence (P07550 whole entry, looked up): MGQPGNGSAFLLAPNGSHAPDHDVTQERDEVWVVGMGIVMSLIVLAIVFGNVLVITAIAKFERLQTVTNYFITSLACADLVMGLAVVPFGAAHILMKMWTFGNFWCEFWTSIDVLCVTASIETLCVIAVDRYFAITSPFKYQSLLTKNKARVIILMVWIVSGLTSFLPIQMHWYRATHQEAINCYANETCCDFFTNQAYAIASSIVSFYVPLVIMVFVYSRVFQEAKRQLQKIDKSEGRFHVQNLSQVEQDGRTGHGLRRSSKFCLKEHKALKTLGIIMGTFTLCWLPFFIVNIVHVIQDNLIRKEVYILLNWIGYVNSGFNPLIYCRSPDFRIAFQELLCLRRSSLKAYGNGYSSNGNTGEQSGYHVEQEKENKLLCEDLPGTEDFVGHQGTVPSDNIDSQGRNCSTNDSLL
rRNA inh HTS OD600 – further read-out of rRNA inh HTS, marked with its call; OD600 change, %; measured here: OD600 growth;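 optical density of the mix in the first replicate; 0 = DMSO median and -100 = no signal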
rRNA inh HTS RFP – second read-out of rRNA inh HTS, no call of its own (marks repeat the call); RFP signal change, %; measured here: RFP humanized mutant strains;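 first replicate; 0 = DMSO median and -100 = no signal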
* = called active by the depositor; i = inactive; nt = no result given; & = joins results of further samples. This is a subset; the hit share may differ from the screen's.

UCH37 DUB inh | E coli growth | FGF22 binding | rRNA inh HTS | rRNA inh HTS OD600 | rRNA inh HTS RFP | HNF4A DNA FP | ALR H2O2 inh | Beta2AR agonist | compound
3.7 | 0.68 | i | 33 | -63 | -14 | 5.4 | 14 | 0 | CC(=O)NC(c1ccco1)c1cc(Cl)c2ccc(Cl)nc2c1O (stereo not drawn)
3.2 | 0.65 | nt | nt | nt | nt | -2.5 | -30 | 2 | CC(C)(C)OC(=O)N1CCC(C(=O)N2CCOCC2)CC1
nt | nt | i | -6 | -6 | -1.8 | 19 | nt | nt | COc1ccc2sc3cccc(NCCN(C)C)c3c(=O)c2c1
nt | nt | i | -1&-5 | 4&-6 | -0.1&-3.9 | 2.3 | nt | nt | Cc1ccc(-c2cnc3c(c2)C(=O)N([C@H](C)CO)C[C@@H](C)[C@@H](CN(C)C(=O)Cc2ccccc2)O3)cc1
2.4 | 0.62 | i | 15 | 9 | -1.4 | -2.2 | 2 | -5 | COCCCNC(=O)CCCN1C(=O)c2cccnc2Sc2ccccc21
1.8 | 0.72 | nt | nt | nt | nt | -0.3 | nt | -2 | COc1ccc(Cl)c(Cn2c(NCc3ccco3)nc3c2c(=O)n(C)c(=O)n3C)c1
1.4 | nt | i | 22 | 16 | -4.7 | -1.9 | -3 | -1 | C#CCNC(=O)[C@H](Cc1ccc(C(=O)c2ccccc2)cc1)NC(=O)OC(C)(C)C
5.6 | 0.68 | nt | 4 | 5 | 0.9 | -0.9 | 2 | -2 | COc1ccc(CNCCCO)cc1OC
nt | nt | i | 7 | 8 | 1.6 | 5.3 | nt | nt | COC(=O)C[C@H]1C=C[C@H](NC(=O)Nc2ccccc2)[C@@H](CO)O1
-0.1 | 0.72 | nt | nt | nt | nt | -1.8 | 1 | -7 | Cc1ccc(S(=O)(=O)NCC(=O)N(CC(=O)NCC2CCCO2)C2CCCC2)cc1 (stereo not drawn)
2.4 | 0.67 | i | 10 | -3 | -6.7 | -3.5 | -4 | 0 | CC(=O)NCCc1csc(-c2ccccc2)n1
1.5 | 0.68 | i | 4 | -8 | 4.5 | -0.4 | -3 | 6 | COc1ccccc1NC(=O)COC(=O)c1cc(C)oc1C

Whole records, quoted from the list. Order of screens: UCH37 DUB inh, E coli growth, FGF22 binding, rRNA inh HTS, rRNA inh HTS OD600, rRNA inh HTS RFP, HNF4A DNA FP, ALR H2O2 inh, Beta2AR agonist
Entry for `COc1ccc(CNCCCO)cc1OC` = 5.6, 0.68, nt, 4, 5, 0.9, -0.9, 2, -2
Entry for `CC(=O)NC(c1ccco1)c1cc(Cl)c2ccc(Cl)nc2c1O` (stereo not drawn) = 3.7, 0.68, i, 33, -63, -14, 5.4, 14, 0
Entry for `COC(=O)C[C@H]1C=C[C@H](NC(=O)Nc2ccccc2)[C@@H](CO)O1` = nt, nt, i, 7, 8, 1.6, 5.3, nt, nt
Entry for `CC(C)(C)OC(=O)N1CCC(C(=O)N2CCOCC2)CC1` = 3.2, 0.65, nt, nt, nt, nt, -2.5, -30, 2
Entry for `COc1ccc(Cl)c(Cn2c(NCc3ccco3)nc3c2c(=O)n(C)c(=O)n3C)c1` = 1.8, 0.72, nt, nt, nt, nt, -0.3, nt, -2

The listing continues:
UCH37 DUB inh | E coli growth | FGF22 binding | rRNA inh HTS | rRNA inh HTS OD600 | rRNA inh HTS RFP | HNF4A DNA FP | ALR H2O2 inh | Beta2AR agonist | compound
-1.1 | nt | nt | nt | nt | nt | -5.6 | 53 | 1 | Cc1ccc(OCC(=O)Nc2ccc(-c3nnc(-c4ccco4)o3)cc2)cc1
1.3 | 0.63 | i | -22* | -13* | -5.2* | -0.5 | nt | -9 | COc1ccc(CCCc2nc3ccccc3[nH]2)cc1
8.4 | 0.64 | i | -10 | 9 | 3.6 | 1.1 | 1 | 4 | O=C(CN1C(=O)/C(=C/c2ccccc2Cl)SC1=S)NC1C=CS(=O)(=O)C1 (stereo not drawn)
-2.5 | 0.72 | i | 15 | 16 | 1.9 | 3.1 | nt | 1 | O=C(NCC(c1cccs1)N1CCOCC1)c1cc(S(=O)(=O)N2CCOCC2)ccc1Cl (stereo not drawn)
4.4 | 0.7 | nt | nt | nt | nt | 1.6 | -5 | -4 | CC(OC(=O)CCCN1C(=O)c2ccccc2C1=O)C(=O)Nc1ncc(Cl)cc1Cl (stereo not drawn)
3.6 | 0.67 | i | 12 | 8 | 3.1 | -2.8 | -2 | 8 | N#CCCN(CCC#N)C(=O)c1ccc(Cl)cc1
6.2 | 0.63 | i | -12 | -16 | 1.7 | 0.5 | nt | -1 | COc1ccccc1N1CCN(C(=O)Cc2ccc(Cl)cc2)CC1
2.3 | 0.7 | i | -2 | 13 | 0.3 | 0.8 | 0 | 13 | CCOC(=O)c1c(NC(=O)CN(CC)CC)sc2c1CCN(C(=O)OCC)C2
2.9 | 0.69 | i | 5 | 6 | -2.2 | -2.5 | -5 | 9 | Cc1ccc(OCCN2C(=O)C(=O)c3cccc(C)c32)cc1
5.3 | 0.7 | nt | nt | nt | nt | -1.7 | -1 | -1 | O=C(CSc1nnc(COc2ccc(Cl)cc2)o1)OC1CCCCC1
6.5 | 0.71 | i | 5 | 6 | 2.7 | 2.1 | -6 | 1 | COc1cccc(CN2CCN(Cc3ccc(C#CC(C)(C)O)s3)CC2CCO)c1 (stereo not drawn)
6.0 | 0.76 | nt | nt | nt | nt | 0.8 | nt | 8 | CN1CCN(CC(=O)N(C)c2nc(-c3ccccc3)cs2)CC1
-237 | 0.68 | nt | 1 | 8 | 2.8 | 5.7 | nt | 12 | COc1cc(NC(=O)c2oc3ccccc3c2C)ccc1NC(=O)c1ccco1
1.2 | 0.74 | nt | nt | nt | nt | -1.7 | 4 | -10 | CCOc1ccc(-c2noc(-c3ccncc3)n2)cc1OCC
1.9 | 0.7 | nt | nt | nt | nt | -13 | 97* | -1 | NC(=O)c1c(NC(=O)CSc2nnc(-c3ccco3)n2-c2ccccc2)sc2c1CCC2
-365 | 0.64 | nt | nt | nt | nt | -3.2 | 15 | -1 | O=C(O)c1ccc2cc(-c3ccccc3)[nH]c2c1
3.9 | 0.68 | i | -3 | -2 | -0.3 | -0.3 | -4 | -12 | O=C(NCc1cccnc1)c1nc(-c2ccccc2)n(-c2ccccc2)n1
4.9 | 0.7 | i | 1 | 3 | -0.5 | -2.6 | -3 | 1 | Cc1ccc(CNC(=O)C2CCCN2S(=O)(=O)c2ccc3c(c2)C(C)(C)C(=O)N3C)cc1 (stereo not drawn)
-21 | 0.65 | i | -6 | 1 | 35 | 1.1 | -12 | 16 | CCN(CC)CCCCNc1ncc2cc(-c3cc(OC)cc(OC)c3)c(NC(=O)NC(C)(C)C)nc2n1
-410 | 0.7 | i | 4 | -2 | 2.8 | 8.7 | 40 | -9 | CCOC(=O)c1sc(=NC(=O)c2ccc(S(=O)(=O)N(C)c3ccccc3)cc2)n(C)c1C
1.0 | 0.73 | i | 3 | 2 | 6.3 | 6.0 | -2 | 2 | O=C(COC(=O)/C=C/c1ccc(OC(F)F)cc1)Nc1cccc(S(=O)(=O)N2CCOCC2)c1
nt | nt | i | 0 | -1 | 1.5 | 1.8 | nt | nt | CCc1cccc(NC(=O)COC(=O)C2COc3ccccc3O2)c1 (stereo not drawn)
0.0 | 0.71 | i | 5 | 15 | -5.8 | 1.2 | nt | 52* | CCOC(=O)c1ccc(S(=O)(=O)N2CCN(C3CC(=O)N(c4ccc(OC)cc4)C3=O)CC2)cc1 (stereo not drawn)
2.9 | 0.69 | i | -60 | -81 | -18 | -0.6 | -3 | -1 | O=C(c1ccco1)N1CCN(C(=O)c2ccc(-c3ccccc3Cl)o2)CC1
6.4 | 0.69 | i | -2 | 4 | 1.2 | -3.0 | nt | 3 | CCOc1ccc(N(CC(=O)NC2CCCCC2)C(=O)Cn2nnc(-c3ccc(C)o3)n2)cc1
-0.9 | 0.7 | i | 12 | 9 | 0.9 | -2.3 | 99* | 5 | CCOc1ccc(S(=O)(=O)NNS(=O)(=O)c2ccc(C)cc2C)cc1
-80 | 0.7 | nt | nt | nt | nt | -1.2 | -8 | -2 | Cc1ccc(-c2nc3cc(N)ccc3o2)cc1
5.6 | 0.64 | i | 1 | 2 | 1.4 | -2.8 | -10 | 5 | Clc1cc2nc[nH]c2cc1Cl
nt | nt | i | -2 | 9 | 5.0 | 4.7 | -10 | 4 | COC(=O)c1ccc(/C=N/Nc2nc(C)c(C)s2)cc1
-22 | 0.67 | i | 8 | 13 | -0.8 | -0.4 | nt | 8 | O=C(NNC(=O)c1cccc2ccccc12)c1ccc(Cl)cc1
0.8 | 0.74 | i | 11 | 15 | 2.8 | -1.3 | 0 | -4 | CC1CCCN(C(=O)COC(=O)Cn2cnc3ccccc32)C1 (stereo not drawn)
1.5 | 0.7 | i | 6 | 2 | -2.0 | -4.0 | 1 | 3 | COc1ccc(OC)c(C(C)NC(=O)Nc2ccccc2)c1 (stereo not drawn)
2.5 | 0.61 | i | 5 | 13 | -0.4 | 5.0 | 7 | 0 | CN1/C(=C/c2cccc[n+]2CCO)Sc2ccccc21
3.0 | 0.63 | nt | nt | nt | nt | -2.4 | -9 | -7 | Cc1ccc(-c2nn3c(=O)c(C)nnc3s2)cc1
1.7 | 0.68 | i | 6 | 4 | -1.1 | 0.5 | -1 | -8 | CCCN(CC(=O)Nc1ccccc1C)C(=O)c1oc2ccc(OCC)cc2c1C
-38 | 0.73 | nt | nt | nt | nt | 2.1 | 4 | 1 | CCCC(=O)Nc1ccc(-c2nc3cc(C)ccc3o2)cc1
5.2 | 0.68 | i | -12 | -31 | -7.6 | 3.5 | nt | 12 | Cc1nc2c(Cl)cccc2c2c1CC(CBr)O2 (stereo not drawn)
2.1 | 0.71 | i | 3 | 2 | 1.4 | -2.1 | nt | -13 | CC(C)c1cc(CNC(=O)c2cc(COc3cncc(Cl)c3)on2)on1
0.7 | 0.72 | i | 3 | 6 | 5.9 | 5.8 | -8 | 4 | O=C(CNC(=O)c1ccc(Cl)cc1)OCN1C(=O)c2ccccc2C1=O
2.1 | 0.71 | nt | nt | nt | nt | 2.1 | -3 | -3 | COc1ccccc1-c1nnc(NC(=O)C2=COCCO2)o1
6.3 | 0.68 | i | 0 | 7 | -2.1 | 1.2 | -2 | -10 | CCOC(=O)c1c[nH]c2c(C(=O)c3ccccc3)cc(Cl)cc2c1=O
-0.2 | 0.69 | i | 3 | -2 | -2.6 | -1.1 | 30 | 8 | COc1cccc(N2CCN(C(=O)c3ccc4nc[nH]c4c3)CC2)c1
-0.8 | 0.66 | i | 12 | 11 | 1.5 | -9.8 | nt | 9 | O=C(COC(=O)c1cnccn1)Nc1ncc(Cl)cc1Cl
